Rango complex inh = qHTS Assay for Inhibitors of Rango (Ran-regulated importin-beta cargo) - Importin beta complex formation. Importin subunit beta-1 (Homo sapiens), Q14974. Rango CFP/YFP FRET sensor + importin beta, 45 min. Potency, µM (highest dose often 92.2 µM), without a hit: top-dose inhibition of complex formation. hit rate 0.031% among 340,000. AID 540263, 2011; active = rising FRET ratio curve, often small or poorly fitted; inconclusive = mostly compound fluorescence or quenching in the first reads; inactive = flat curves in all reads;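 also: potency is read from the fitted curve at half-maximal effect; 0% = DMSO wells and 100% = buffer wells lacking importin beta; nearly all actives have a fitted effect of over 15% in size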
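FRET biosensor (snurportin 1 IBB flanked by EYFP and cerulean), 50 nM, with compound 5 min, then 0.125 microM importin beta in PBS, 1 mM DTT, 0.02% Tween-20, 0.1% BSA. CFP/YFP ratio read after 45 min at room temperature; pre-read flags interference.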
miR-21 FLuc = qHTS Assay for Modulators of miRNAs and/orActivators of miR-21; HeLa miR-21 FLuc reporter, luciferase, 48 h; Potency, µM (highest dose often 38.3 µM), for the others: top-dose reporter change, positive = more light; 340,000 tested, under 10 active; active = well fitted rising curve with a large enough effect; inconclusive = small, poorly fitted or top-dose-only effect; inactive = no such curve, though single readings can be large or run the other way;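 also: % of control where 0% means no effect; miR-21 action dims this reporter so a rising signal means less miR-21 action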
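HeLa cells endogenously expressing miR-21, stably carrying CMV-driven firefly luciferase with a downstream miR-21 binding site, 2000 cells/well. Titrations up to approximately 40 uM, 48 hours; luciferase luminescence read.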
GLA inh pH 4.5 = qHTS Assay for Inhibitors of Human alpha-Galactosidase at pH 4.5; 230,000 tested, under 10 active; activity change, negative = inhibition, % at 105 µM; AID 1467, 2008; purified enzyme, 4-MU-alpha-Gal fluorescence, pH 4.5; Alpha-galactosidase A (Homo sapiens), P06280; inconclusive = small, poorly fitted or top-dose-only inhibition, or a rising curve; inactive = flat fitted curve, though single readings scatter; no compound was filed as active;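 also: 0% = full activity with enzyme and -100% = basal without enzyme; dose as in the result columns while the protocol names 77 µM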
Target sequence (P06280 whole entry, looked up): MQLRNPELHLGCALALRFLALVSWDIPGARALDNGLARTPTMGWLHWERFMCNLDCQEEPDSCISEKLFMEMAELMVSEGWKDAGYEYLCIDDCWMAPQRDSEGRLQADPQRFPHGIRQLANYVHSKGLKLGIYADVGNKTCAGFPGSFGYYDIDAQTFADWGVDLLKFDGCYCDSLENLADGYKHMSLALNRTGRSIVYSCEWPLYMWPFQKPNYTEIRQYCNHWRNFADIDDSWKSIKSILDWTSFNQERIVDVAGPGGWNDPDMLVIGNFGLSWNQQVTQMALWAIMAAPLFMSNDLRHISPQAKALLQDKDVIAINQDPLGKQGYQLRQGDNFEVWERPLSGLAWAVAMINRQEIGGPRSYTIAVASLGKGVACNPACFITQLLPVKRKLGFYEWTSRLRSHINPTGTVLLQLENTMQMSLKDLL
Rango dissoc inh = qHTS Assay for Inhibitors of RanGTP induced Rango (Ran-regulated importin-beta cargo) - Importin beta complex dissociation. Biochemical FRET Rango-importin beta, RanGTP-induced dissociation. Potency, µM (highest dose often 46.1 µM), inactives show at the highest dose activity change, negative = inhibition. hit rate 0.071% among 340,000. AID 540253, 2011; active means falling FRET ratio curve, often poorly fitted, with flat reads before Ran was added; inconclusive means other falling curves, or compound fluorescence or quenching; inactive means flat or rising ratio curve;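 also: potency is read from the fitted curve at half-maximal effect; % of control where 0% means no effect; nearly all actives have a fitted effect of over 45% in size; -100% = wells without RanGTP and RCC1; the record marks most hits as doubtful in a second field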
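Recombinant Rango FRET biosensor (EYFP–snurportin 1 IBB–cerulean CFP10) at 0.1 uM premixed with 0.25 uM importin beta in PBS, 1 mM DTT, 0.02% Tween-20, 0.1% BSA. Compound added 5 min; RanGTP-RCC1 (0.6 uM Ran, 2 mM GTP, 0.2 uM RCC1) then triggers release, read at 45 min.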
* = called active by the depositor; ? = inconclusive; . = no result given; & = joins results of further samples.

Rango dissoc inh	miR-21 FLuc	GLA inh pH 4.5	Rango complex inh	SMILES
-4%	.	.	-1.8%	O=c1cc(CN2CCN(S(=O)(=O)c3ccccc3)CC2)nc2ccc(Cl)cn12
17%	-1%	.	-2.2%	Cc1cc(C)nc(SCC(=O)OCC(=O)N(C)c2c(N)n(Cc3ccccc3)c(=O)[nH]c2=O)n1
0%	-4%	.	3.1%	CC1c2[nH]c3ccccc3c2C[C@H]2C(=O)N(CCCO)CC(=O)N12 (stereo not given in full)
-14%	-2%	-5&-14	?	COC(=O)CCC(=O)OC1(C)C(=O)C=C2C=C(C3CC3)N(CCN3CCOCC3)C=C2C1=O (stereo not given)
6%	-34%	?	0.8%	CCC(C)NC(=O)CCC(=O)Nc1ccc2nc(N3CCOCC3)cc(C)c2c1 (stereo not given)
0%	3%	10	0.1%	O=C(CCCOc1ccc(Cl)cc1Cl)NCCCn1ccnc1
-9%	.	.	-1.1%	CC1CCCN(S(=O)(=O)c2ccc(NC(=O)C3CCN(C(=O)C(C)(C)C)CC3)cc2)C1 (stereo not given)
-8%	-11%	.	0.6%	CCNC(=S)Nc1cc2oc3ccccc3c2cc1OC
-9%	-10%	3	5.9%	O=C(CSc1ncccn1)NCCc1ccccc1
0%	.	.	1.5%	CCN1C[C@@H]2[C@@H]3C(=O)N(Cc4ccccc4)C(=O)[C@@H]3[C@](C)(C(=O)OC)N2C1=NC
3%	7%	-4	0.9%	Cn1nc(C(C)(C)C)c(NC(=O)c2sccc2Cl)c1C(C)(C)C
-12%	-7%	6	9.0%	COc1cc(C(=O)Nc2ccccc2N2CCOCC2)ccc1OCc1c(C)noc1C
-6%	-3%	1	0.0%	Cn1c(NCCc2ccccc2)cc(=O)n(C)c1=O
14%	1%	.	1.4%	CC(=O)Nc1c2c(nn1-c1cccc(Cl)c1)CS(=O)(=O)C2
-14%	-50%	.	-0.3%	COc1ccc(OCc2cc(C(=O)NCC3CCCCO3)no2)c(Cl)c1 (stereo not given)
.	-4%	?	.	COc1ccc(NC(=S)N(CCN2CCOCC2)Cc2cc3cc4c(cc3[nH]c2=O)OCO4)cc1
-14%	-51%	3	0.0%	CN(C)C(=O)c1ccc2c(c1[N+](=O)[O-])C(=O)c1ccccc1C2=O
3%	.	.	?	C(=C\n1nnc2ccccc21)/c1ccccn1
3%	4%	.	-5.1%	CCCN1CCN(S(=O)(=O)c2ccc(-c3cc(C)no3)s2)CC1
8%	0%	8	-1.5%	O=C(O)c1ccc(OCC(F)(F)F)nc1
21%	-13%	7	2.2%	COc1ccc(-c2cc(-c3ccccc3)n3ncnc3n2)cc1
-10%	-41%	.	0.2%	Fc1cc2[nH]c(=S)[nH]c2c(Br)c1N1CCSCC1
2%	0%	2	3.9%	N/C(=N\OC(=O)Oc1ccccc1)c1cccc([N+](=O)[O-])c1
-12%	.	.	-0.2%	COc1cc(-c2nnc(COC(=O)CSCC(=O)Nc3cc(C)on3)o2)cc(OC)c1OC
13%	.	.	-7.5%	OC(c1ccccc1)C(O)c1ccccc1 (stereo not given)
1%	-7%	-1	-0.6%	C=C(C)Cn1c(CCNC(=O)C(C)(C)C)nc2ccccc21
1%	-9%	2	-4.5%	Cc1nc2sc(C(c3ccco3)N3CCN(c4ccccc4)CC3)c(O)n2n1 (stereo not given)
-7%	7%	.	-0.2%	Cc1c(OC(C)C(=O)NCc2ccccn2)ccc2c3c(c(=O)oc12)CCC3 (stereo not given)
1%	-23%	.	-1.9%	Cc1ccccc1NC(=O)NCCCCc1ccccc1
1%	.	.	-2.5%	O=C(CNC(=O)c1cccs1)Nc1ccncc1
-12%	-40%	5	-1.1%	C/C(=N/Oc1nc(C)cc(C)n1)c1ccccc1
-14%	1%	6	-0.2%	CCOc1ccc(Br)cc1S(=O)(=O)Nc1ccc(N2CCOCC2)cc1
15%	5%	.	-0.1%	OCC1(Cc2ccc(F)cc2)CCCN(Cc2ccc(F)cc2Cl)C1 (stereo not given)
4%	-3%	10	?	O=C(CCC(=O)NC1CCCCCC1)Nc1nnc(C(F)(F)F)s1
0%	-66%	7	-3.5%	O=C(Nc1ccn(-c2ccccc2)n1)c1ccccc1Br
-13%	-7%	-3	-2.2%	COc1ccc2c(c1)C(=NO)c1cc(OC)ccc1-2
?	-5%	5	3.7%	COc1cccc(CC2CC(=O)N(CCc3ccc4c(c3)OCO4)C2=O)c1 (stereo not given)
16%	-35%	0	-3.2%	Cc1cc(/C=N/O)c(C)n1-c1ccccc1
-8%	.	.	-1.0%	CN(C(=O)c1ccc(NC(=O)Cc2cccc(NC(=O)C3CCN(C(=O)C4CCCCC4)CC3)c2)cc1)C1CC1
?	-22%	8	?	O=C(Nc1nccs1)c1ccccc1N=Cc1ccccc1
-1%	.	.	-2.1%	Cc1ccc(S(=O)(=O)NC(C)C(=O)OCC(=O)N(C)c2ccccc2)cc1 (stereo not given)
0%	2%	-5	-0.9%	CC(=O)c1sc(Nc2nc(C)cc(C)n2)nc1C
2%	-1%	0	0.3%	CC(=O)NC(CC(=O)NCCN1C(=O)S/C(=C\c2ccccc2)C1=O)c1ccccc1 (stereo not given)
8%	6%	-9	-1.3%	COc1ccc(-c2noc(CSc3nnc(Cc4ccccc4)n3-c3ccc(Cl)cc3)n2)cc1
1%	-1%	8	0.0%	Cc1ccc2[nH]c(-c3ccccc3)cc(=O)c2c1
-3%	0%	.	-1.3%	CC(C)c1nnc(NC(=O)CCC(=O)NC2CC2)s1
19%	-1%	.	-5.8%	COc1ccc(N(C(=O)c2ccco2)C(C(=O)NC2CCCC2)c2ccc(N3CCOCC3)cc2)c(OC)c1 (stereo not given)
-8%	2%	-3	-1.0%	CC(=O)c1sc(NC(=O)COc2ccc([N+](=O)[O-])cc2)nc1C
-3%	-57%	-16	-3.9%	O=C(Nc1nc(-c2ccc3c(c2)OCCO3)cs1)C1CCCC1
9%	-11%	1	1.8%	Cc1nn(C)cc1-c1n[nH]c(=S)n1-c1ccc(Cl)cc1
0%	0%	-10	0.3%	CC1Cc2ccccc2N1C(=S)Nc1ccc(S(N)(=O)=O)cc1 (stereo not given)
20%	-2%	.	5.4%	O=C(CN(CC1CCCO1)C(=O)CNS(=O)(=O)c1ccc(F)cc1)NCCc1ccccc1 (stereo not given)
3%	0%	-9	?	COc1ccc(NC(=O)CSc2nc3c(c(=O)n2-c2ccc(F)cc2)SCC3)c(OC)c1
-10%	21%	0	-1.4%	FC(F)Sc1ccc(-n2c(-c3ccc(Cl)cc3)c[n+]3c2CCC3)cc1
25%	.	.	2.1%	Cc1ccc[n+](CC(=O)c2ccc(NC(=O)c3ccccc3)cc2)c1C
1%	.	.	-0.4%	CCN(CC(=O)Nc1c(F)cccc1F)C(=O)Cc1sc(C)nc1-c1ccc(F)cc1
-11%	.	.	-6.2%	CCOC(=O)C1=CN(CC)CCC1=O
?	-3%	.	0.9%	COc1cc2c(cc1OC)CN(C(=O)C1CCN(S(=O)(=O)c3ccccc3F)CC1)CC2
-14%	-3%	0	0.8%	CCON1C(=O)CN(C(=O)OC)C1c1ccc(Cl)cc1Cl (stereo not given)
0%	0%	1	-0.1%	COC(=O)c1ccccc1NC(=O)c1ccccc1N(C)S(=O)(=O)c1ccccc1

Sorted by formula weight (high to low): part of the list above.
Rango dissoc inh	miR-21 FLuc	GLA inh pH 4.5	Rango complex inh	SMILES
?	-3%	.	0.9%	COc1cc2c(cc1OC)CN(C(=O)C1CCN(S(=O)(=O)c3ccccc3F)CC1)CC2
0%	0%	1	-0.1%	COC(=O)c1ccccc1NC(=O)c1ccccc1N(C)S(=O)(=O)c1ccccc1
-10%	21%	0	-1.4%	FC(F)Sc1ccc(-n2c(-c3ccc(Cl)cc3)c[n+]3c2CCC3)cc1
25%	.	.	2.1%	Cc1ccc[n+](CC(=O)c2ccc(NC(=O)c3ccccc3)cc2)c1C
-14%	-3%	0	0.8%	CCON1C(=O)CN(C(=O)OC)C1c1ccc(Cl)cc1Cl (stereo not given)
-3%	0%	.	-1.3%	CC(C)c1nnc(NC(=O)CCC(=O)NC2CC2)s1

(list continues)
Rango dissoc inh	miR-21 FLuc	GLA inh pH 4.5	Rango complex inh	SMILES
7%	2%	3	4.8%	CC1CCN(c2c(NCC3CCC(C(=O)N4CCCCC4)CC3)c(=O)c2=O)CC1 (stereo not given)
1%	.	.	4.9%	COc1ccccc1CCNC(=O)CSc1nc(=O)[nH]c2c1CCC2
1%	.	.	2.2%	O=C(COC(=O)c1ccc(OC(F)(F)F)cc1)NCCN1C(=O)CSC1=O
-7%	15%	.	0.1%	O=C(NC(=S)NNC(=O)c1ccccc1O)c1ccc(F)cc1
-1%	2%	-4	0.8%	CCc1ccc(-n2c(Cn3nc(C(F)(F)F)cc3C)n[nH]c2=S)cc1
-1%	.	.	?	O=C1N=C(N2CCOCC2)SC1=Cc1ccco1
1%	-5%	-7	-1.3%	COc1ccc(Oc2ccccc2C#N)cc1
2%	18%	.	0.2%	NCCCC(=O)N1c2ccccc2Sc2ccc(Cl)cc21
-4%	19%	-8	0.4%	Cc1cc(C(=O)CSc2nnc(-c3cccc(F)c3)n2N)c(C)n1Cc1ccc2c(c1)OCO2
-1%	?	-11	3.9%	CN(c1ccccc1)S(=O)(=O)c1ccc(C(=O)Nc2nnc(C3CC3)o2)cc1
-4%	-3%	.	-0.4%	O=C(N/N=C/c1ccc(OC(=O)c2ccccc2)cc1)c1cccnc1
?	.	.	?	O=C(CCl)N1c2ccccc2Oc2ccc3ccccc3c21
25%	-27%	-5	1.9%	Fc1ccc(N/N=C/c2cccnc2)c(F)c1
-7%	17%	.	?	O=C(O)CCNc1cc(N2CCN(C(=O)c3ccco3)CC2)c2noc3c2c1C(=O)c1ccccc1-3
10%	2%	1	-0.5%	CCC1=NC(c2ccccc2OC)N(O)C1(C)C (stereo not given)
17%	0%	2	1.2%	COc1ccccc1NC(=O)CSc1c2c(nc3ccccc13)CCC2
-13%	-11%	-20	?	COCc1cc(C)nc2sc(C(=O)N3CCCC3)c(N)c12
7%	.	.	2.3%	COc1ccccc1NS(=O)(=O)c1ccc(C)c(C(=O)NC2CCN(Cc3ccccc3)CC2)c1
-15%	3%	-11	-0.4%	COc1ccccc1CNC(=O)CNC(=O)c1cn(-c2ccccc2OC)c(=O)c2ccccc12
-2%	-9%	-5	2.8%	O=C(COC(=O)c1cc(S(=O)(=O)N2CCCC2)ccc1O)Nc1ccc(S(=O)(=O)N2CCOCC2)cc1
?	8%	-1	?	CCCn1nc(NC(=O)c2cccs2)c2cc3ccc(C)cc3nc21
-6%	-50%	-6	?	Nc1ccc(-c2nc3cc(N)ccc3s2)cc1
-4%	-14%	-1	-0.2%	CC(=O)NNS(=O)(=O)c1ccc(-c2cc(C(F)(F)F)n(C)n2)s1
13%	-2%	4	-0.5%	COc1ccc(C(=O)NCc2nnc(SC)n2C2CCCCC2)cc1
-12%	.	.	-0.2%	Cc1sc2ncnc(SCC(=O)Nc3ccc(S(=O)(=O)N4CCOCC4)cc3)c2c1C
9%	-1%	.	0.6%	COc1cccc(/C=C2\SC(=O)N(CC(=O)NCCCn3ccnc3)C2=O)c1
-7%	-7%	4	-3.5%	O=C(c1ccc2c(c1)OCO2)N1CCC2(CC1)Oc1ccc(Cl)cc1C(=O)C21CC(c2cccnc2)=NO1 (stereo not given)
-16%	-8%	1	-6.2%	COc1ccc(NC(=O)C(C)NS(=O)(=O)c2ccc(NC(C)=O)cc2)cc1Cl (stereo not given)
17%	-1%	11	?	CCN(C(=O)COC(=O)c1cc(-c2cccs2)nc2ccccc12)C1CCS(=O)(=O)C1 (stereo not given)
-2%	-3%	4	1.2%	COC(=O)c1ccc(OC(=O)C23CCC(C)(C(=O)O2)C3(C)C)cc1 (stereo not given)
.	2%	-1	.	O=C1/C(=N/n2cnnc2)c2ccccc2N1Cc1ccccc1

Source: PubChem (National Center for Advancing Translational Sciences (NCATS))

Not all compounds are listed (hit frequency here may not be typical).
